# Compound activity from PubChem BioAssay.
# TRPML1 agonist = human mucolipin-1 channel agonism. Q9GZU1. TRPML1-expressing cells, Ca2+ dye fluorescence, FDSS; host cell line not named in the record; reference of the full effect not given here. activation, % (concentration not given with the values). actives 0.12% (n = 410,000). AID 624414; in the data active = activation above about 50%; inconclusive = about 30% to 50%; inactive = below about 30%; also: 0% is about no effect; the text of the record puts the active cut at 80%
# Target sequence (Q9GZU1 whole entry, looked up): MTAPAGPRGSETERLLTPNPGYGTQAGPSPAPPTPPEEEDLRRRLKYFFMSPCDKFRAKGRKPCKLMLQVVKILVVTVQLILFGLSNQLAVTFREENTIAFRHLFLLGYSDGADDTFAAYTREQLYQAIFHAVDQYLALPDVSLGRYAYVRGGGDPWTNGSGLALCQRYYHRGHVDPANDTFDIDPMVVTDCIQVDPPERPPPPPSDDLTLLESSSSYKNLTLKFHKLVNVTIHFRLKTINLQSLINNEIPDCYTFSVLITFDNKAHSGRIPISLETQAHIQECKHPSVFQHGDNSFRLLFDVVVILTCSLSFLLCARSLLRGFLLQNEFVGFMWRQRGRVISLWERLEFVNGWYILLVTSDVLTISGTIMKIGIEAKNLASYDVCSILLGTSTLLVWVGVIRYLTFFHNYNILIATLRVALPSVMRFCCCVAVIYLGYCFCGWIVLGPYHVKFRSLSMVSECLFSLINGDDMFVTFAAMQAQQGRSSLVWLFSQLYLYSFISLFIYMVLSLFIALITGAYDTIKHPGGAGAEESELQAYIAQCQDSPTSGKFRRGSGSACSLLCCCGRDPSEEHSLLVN
#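 Calcium fluorescence on an FDSS kinetic reader gave the read-out. Tet-induced TRPML1-DL cells were plated overnight, dye-loaded (Ca8 with quencher, 45-90 min, room temperature, dark), then read 110 s after compound addition, and again 110 s after 4uM final 54-4 (EC80).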
# * marks the source's active call; other numbers are inactive results; & = joins results of further samples. Only part of the results is shown (hit frequency here may not be typical).
1	CC(C)CC1C(=O)N2CCC[C@H]2[C@]2(O)O[C@](NC(=O)[C@@H]3C=C4c5cccc6[nH]c(Br)c(c56)C[C@H]4N(C)C3)(C(C)C)C(=O)N12 (stereo not given in full)
  TRPML1 agonist: 5.1

2	O=C(C[n+]1cccc(Cl)c1)c1ccc(O)c(O)c1
  TRPML1 agonist: -0.3

3	COc1ccc(CN(Cc2ccccc2)C(=O)c2ccc(NC(C)=O)cc2)cc1COc1ccc(NC(C)=O)cc1
  TRPML1 agonist: -0.1

4	O=S(=O)(c1ccccc1Br)N1CCN(c2nc(-c3ccccc3)nc3ccccc23)CC1
  TRPML1 agonist: -0.6

5	Cc1ccc2c(C)ccnc2c1
  TRPML1 agonist: -0.6

6	COc1cc(OC)c(/C=C/c2ccc3ccccc3[n+]2[O-])c(OC)c1
  TRPML1 agonist: -0.9

7	O=c1[nH]c(=O)c2ncn(C3OC(CO)C(O)C3O)c2[nH]1 (stereo not given)
  TRPML1 agonist: 0.0

8	COc1ccc(CN(Cc2ccccc2)C(=O)c2ccco2)cc1COc1ccc(NC(C)=O)cc1
  TRPML1 agonist: -0.7

9	CCN(N=O)c1ccc(/C=C2\C=Cc3ccccc32)cc1
  TRPML1 agonist: 1.0

10	O=C(C[n+]1ccccc1Cl)c1ccc2c(c1)CCCC2
  TRPML1 agonist: -0.5

11	COc1cc(/C=C2\C=Cc3ccccc32)cc(OC)c1OC
  TRPML1 agonist: -0.4

12	COc1cc2c(NC3CCN(C)CC3)nc(N3CCCCC3)nc2cc1OCCOCCN1CCCC1
  TRPML1 agonist: -0.4

13	Cn1c2c(c3cnc4cc(Cl)ccc4c31)CNCC2
  TRPML1 agonist: 0.5

14	COc1cccc(CNc2ncnc3nc[nH]c23)c1
  TRPML1 agonist: -0.9&-0.1

15	COc1ccc[n+](CC(=O)c2ccc(F)cc2)c1
  TRPML1 agonist: 0.0

# Looked up one by one from the list above:
8	COc1ccc(CN(Cc2ccccc2)C(=O)c2ccco2)cc1COc1ccc(NC(C)=O)cc1
  TRPML1 agonist: -0.7

5	Cc1ccc2c(C)ccnc2c1
  TRPML1 agonist: -0.6

# Going on with the list.
16	O=S(=O)(c1ccc(Cl)cc1)N1CCOCC1
  TRPML1 agonist: -0.5

17	CS(=O)(=O)c1ccc(C(=O)OCC(=O)N2CC(=O)Nc3ccccc32)cc1[N+](=O)[O-]
  TRPML1 agonist: -0.3

18	Clc1ccc2c(ccc[n+]2CCC2CCCCC2)c1
  TRPML1 agonist: 0.7

19	Cc1c(C)c(C)c(/C=C/c2ccnc3ccccc23)c(C)c1C
  TRPML1 agonist: 0.8

20	C=C1Nc2ccccc2C(=O)N1c1ccc(C(=O)N2CCN(C(=O)c3ccco3)CC2)cc1
  TRPML1 agonist: -0.2

21	COc1ccc(C(=O)C[n+]2cccc3cccc(O)c32)cc1
  TRPML1 agonist: 0.5

22	CC(C)(C)CC(C)(C)N=C1Nc2ccccc2N[C@]12C[C@H]1CCCC(=O)N3CC[C@@H](C2)[C@@H]13
  TRPML1 agonist: 0.2

23	Cc1ccc(S(=O)(=O)N2CCN(c3nc(-c4cccs4)nc4ncccc34)CC2)cc1
  TRPML1 agonist: -0.4

24	Cc1nc([N+](=O)[O-])cn1CC(=O)c1ccc2c(c1)OCCCO2
  TRPML1 agonist: -0.4

25	COc1cc2c(cc1OC)C(c1cc(-c3cc(Cl)ccc3Cl)oc1C)=NCC2
  TRPML1 agonist: -0.2

26	CCOC(=O)c1c(N)sc2c1CCN(Cc1ccccc1)C2
  TRPML1 agonist: 0.3

27	N#CN=c1snc(-c2ccccc2Cl)n1-c1ccc(F)cc1
  TRPML1 agonist: 6.3

28	c1ccc2nc3ccccc3cc2c1
  TRPML1 agonist: 1.1

29	O=C(Cc1cccc(F)c1)NO
  TRPML1 agonist: -0.5

30	Oc1ccc(Br)cc1C1C=C(c2ccc3c(c2)OCO3)NC(c2ccc(Cl)cc2)N1 (stereo not given)
  TRPML1 agonist: -0.1

# Among those listed so far, 2 contain a nitro group on carbon.
17	CS(=O)(=O)c1ccc(C(=O)OCC(=O)N2CC(=O)Nc3ccccc32)cc1[N+](=O)[O-]
  TRPML1 agonist: -0.3

24	Cc1nc([N+](=O)[O-])cn1CC(=O)c1ccc2c(c1)OCCCO2
  TRPML1 agonist: -0.4

# (continued)
31	O=C(C[N+]1(CCO)CCOCC1)c1cccc2ccccc12
  TRPML1 agonist: -0.2

32	Cc1ccc(S(=O)(=O)N2CCN(c3nc(C(N)=O)nc4ccccc34)CC2)cc1
  TRPML1 agonist: -1.1

33	Clc1ccc2nccnc2c1
  TRPML1 agonist: 0.3

34	CCCN1CNc2c(c(=O)[nH]c(=O)n2CCc2ccc(OC)c(OC)c2)C1
  TRPML1 agonist: -0.4

35	c1ccc2c(C(c3c[nH]c4ccccc34)c3c[nH]c4ccccc34)c[nH]c2c1
  TRPML1 agonist: 1.9

36	CN(C)c1ccc2ccc3cccc4ccc1c2c34
  TRPML1 agonist: 29

37	Cc1ccc2oc(-c3ccc(NC(=O)COc4ccccc4)cc3O)nc2c1
  TRPML1 agonist: -0.3

38	CN(C)c1ccc(/C=C2\CCc3ccccc32)cc1
  TRPML1 agonist: -0.7

39	COc1nc(C#N)nc(N2CCCC2)n1
  TRPML1 agonist: -0.5

40	O=C(Nc1nccs1)[C@@H]1CC=C[C@@H]2CCN(C3CC3)C(=O)[C@@H]21
  TRPML1 agonist: -0.6

41	Cc1ccn2c(NC3CCCCC3)c(-c3ccc(C)o3)nc2c1
  TRPML1 agonist: -0.1

42	O=C(C[n+]1ccnc2ccccc21)c1ccc(Cl)cc1
  TRPML1 agonist: -0.2

43	CCOc1cccc(C2C=C(c3ccc4c(c3)OCO4)NC(c3ccccc3F)N2)c1O (stereo not given)
  TRPML1 agonist: 0.1

44	OC[C@@H]1O[C@H](n2cnc3c(SCc4ccccc4)ncnc32)[C@H](O)[C@H]1O
  TRPML1 agonist: -0.5

45	C(=C\c1c[nH]c2ccccc12)/c1cc[n+](C2CCCCC2)cc1
  TRPML1 agonist: -0.2

# An excerpt from above in order of number of heavy atoms, rising:
39	COc1nc(C#N)nc(N2CCCC2)n1
  TRPML1 agonist: -0.5

42	O=C(C[n+]1ccnc2ccccc21)c1ccc(Cl)cc1
  TRPML1 agonist: -0.2

32	Cc1ccc(S(=O)(=O)N2CCN(c3nc(C(N)=O)nc4ccccc34)CC2)cc1
  TRPML1 agonist: -1.1

43	CCOc1cccc(C2C=C(c3ccc4c(c3)OCO4)NC(c3ccccc3F)N2)c1O (stereo not given)
  TRPML1 agonist: 0.1

# (next part)
46	Cc1nc(N2CCN(C)CC2)c2nnn(Cc3ccccc3)c2n1
  TRPML1 agonist: -0.6

47	Nc1ccc(-c2cc3ccccc3[nH]2)cc1
  TRPML1 agonist: -0.1

48	O=C(COc1ccccc1C(=O)Nc1ccccc1)Nc1ccc2ccccc2c1
  TRPML1 agonist: 0.0

49	C=C1C=C(C(F)F)n2ncc(C(=O)NCc3ccc(OC)c(OC)c3)c2N1
  TRPML1 agonist: -1.0

50	O=S(=O)(c1nccs1)N1CCN(c2nc(-c3cccs3)nc3ccccc23)CC1
  TRPML1 agonist: 1.1

51	CCC(C)NC(=O)c1ccc2nc(-c3ccco3)c(-c3ccco3)nc2c1 (stereo not given)
  TRPML1 agonist: -0.4

52	CCCN1CNc2c(c(=O)[nH]c(=S)n2CCc2cccc(OC)c2OC)C1
  TRPML1 agonist: -0.2

53	CCCCc1c(C)[nH]c2c(OC)cccc2c1=S
  TRPML1 agonist: -0.6

54	CN(C)c1cc2c3ccccc3ccc2c2ccccc12
  TRPML1 agonist: -0.3

55	Cc1ccc(-c2csc3ncnc(Sc4nnnn4C4CC4)c23)cc1
  TRPML1 agonist: -0.7

56	O=C(C[n+]1cccc2cccc(O)c21)c1ccc(Br)cc1
  TRPML1 agonist: -0.1

57	Clc1ccc(Cn2cc3c(n2)-c2cc4ccccc4n2C3)cc1
  TRPML1 agonist: -1.1

58	CC1(C)CC(=O)C2=C(C1)NC(Nc1nc3ccccc3o1)=NC2c1cccc(F)c1 (stereo not given)
  TRPML1 agonist: -0.6

59	CCOc1cc(C2Nc3ccccc3C(=O)N2Cc2ccco2)ccc1OCc1ccccc1Cl (stereo not given)
  TRPML1 agonist: -0.4

60	Cc1sc2ccccc2[n+]1Cc1ccccc1
  TRPML1 agonist: -0.7

61	CCc1ccc(NC(=O)CSc2nnc(-c3ccccc3)n2C)cc1
  TRPML1 agonist: -1.5

62	CCCN1CNc2c(c(=O)[nH]c(=S)n2CCc2cc(C)ccc2C)C1
  TRPML1 agonist: -0.4

63	CCOc1ccc(S(=O)(=O)N2CCN(c3nc(-c4ccccc4)nc4ccccc34)CC2)cc1
  TRPML1 agonist: 0.4

64	Cc1ccc(S(=O)(=O)N2CCN(c3nc(Nc4ccccc4O)nc4ccccc34)CC2)cc1
  TRPML1 agonist: 0.2

65	O=C(c1ccc2c(=O)n(CC3CCCO3)c(=S)[nH]c2c1)N1CCN(C(=O)c2ccco2)CC1 (stereo not given)
  TRPML1 agonist: -0.4

66	CNc1ccc(/C=C2\C=Cc3ccccc32)cc1
  TRPML1 agonist: -0.1

67	CC(=O)Nc1ccc(S(=O)(=O)O)c2cc(S(=O)(=O)O)c(N=Nc3ccc(N=Nc4ccc(S(=O)(=O)O)cc4)c4ccc(S(=O)(=O)O)cc34)c(O)c12
  TRPML1 agonist: -1.1

68	Cc1csc(NCC(=O)c2c[nH]c3ccccc23)n1
  TRPML1 agonist: -0.5

69	O=C1CC(c2ccccc2)CC2=C1C(c1ccco1)n1nc(C(F)(F)F)nc1N2 (stereo not given)
  TRPML1 agonist: -1.3

70	CN(C)c1ccc(C=Nc2cncc3ccccc23)cc1
  TRPML1 agonist: -0.5

71	C[C@@H]1[C@H](c2ccccc2)OCCS(=O)(=O)N1Cc1cccc(Cl)c1
  TRPML1 agonist: -0.5

72	Cc1cc(C)c2c(n1)NCCC2
  TRPML1 agonist: -0.4

73	CCN(CC)c1cc(C)c(/C=C/c2ccnc3ccccc23)cc1C
  TRPML1 agonist: 19

74	O=C(C[n+]1ccccc1Cl)c1ccc(I)cc1
  TRPML1 agonist: -0.8

75	Cc1ccc2c(/C=C/c3ccc(N(C)C)cc3)ccnc2c1
  TRPML1 agonist: 17

# Quoted from above, nos. 61–62
61	CCc1ccc(NC(=O)CSc2nnc(-c3ccccc3)n2C)cc1
  TRPML1 agonist: -1.5

62	CCCN1CNc2c(c(=O)[nH]c(=S)n2CCc2cc(C)ccc2C)C1
  TRPML1 agonist: -0.4

# The list goes on.
76	COc1cccc(CNc2nc(Cl)nc3nc[nH]c23)c1
  TRPML1 agonist: -0.5&-0.8

77	CC/C(=C\c1ccc(C(=O)OC)cc1)c1cc(OC)cc2oc3ccccc3c12
  TRPML1 agonist: 1.1

78	O=S(=O)(c1ccc2c(c1)OCO2)N1CCN(c2nc(-c3cccs3)nc3ccccc23)CC1
  TRPML1 agonist: 0.6

79	CC(C)[C@H]1c2ccc(F)cc2CC[C@@]1(CCN(C)CCCc1nc2ccccc2[nH]1)OC(=O)C1CC1
  TRPML1 agonist: 1.2

80	COc1ccccc1C(=O)OCC(=O)Nc1ccc(N2CCCCC2)cc1
  TRPML1 agonist: -1.1

81	CCCN1C(=O)c2ccccc2NC1c1ccc(OC)c(COc2ccc([N+](=O)[O-])cc2)c1 (stereo not given)
  TRPML1 agonist: -0.3

82	COc1ccc(CN2CC[C@H]3C=CC[C@@H](C(=O)Nc4ccccc4)[C@H]3C2=O)cc1OC
  TRPML1 agonist: -0.5&-0.9

83	O=S(=O)(c1ccc(Br)cc1)N1CCN(c2nc(-c3ccccc3)nc3ccccc23)CC1
  TRPML1 agonist: 0.2
